SARS PLP yeast: qHTS of Yeast-based Assay for SARS-CoV PLP; S. cerevisiae expressing SARS-CoV PLpro, growth rescue; control for the full effect not named in the record; Potency, µM (titrated, usually from 32.9 µM), without a hit: at the top dose activity, positive = growth rescue; 330,000 tested, 0.19% active; active means well fitted rising curve with a large enough effect; inconclusive means small, poorly fitted or top-dose-only effect; inactive means no such curve, though single readings can be large or run the other way; also: 0% is about no effect; nearly all actives have a fitted effect of over 55% in size; growth read by luminescence after 48 h
RE007 growth inh: qHTS Assay for Inhibitors of the HIV-1 protein Vpr; S. pombe RE007 Vpr strain, BacTiter-Glo ATP luminescence, 24 h; control for the full effect not named in the record; Potency, µM (doses to about 92.2 µM), inactives show top-dose activity change, negative = less growth; 360,000 tested, 0.21% active; AID 651644, 2012; active = well fitted falling curve with a large enough effect; inconclusive = small, poorly fitted or top-dose-only effect; inactive = no such curve, though single readings can be large or run the other way;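 also: % is scaled to controls: 0 for no effect and ±100 for the full control effect; nearly all actives have a fitted effect of over 50% in size; the assay follows cell death caused by Vpr and the record does not say whether a fall means rescue or toxicity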
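Fission yeast RE007 carrying one integrated HIV-1 vpr copy, seeded at OD 0.01 in PMG+AL medium with 23 nL pinned compound. Grown 24 h at 30 degrees; viability read by BacTiter-Glo luminescence after 5 min.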
2A StopGo: High Throughput Screening for Foot and Mouth Disease Virus Antivirals; AID 1159524, 2015; Potency, µM (doses to about 57.9 µM), inactives show at the top dose signal change, negative = less light; human cells with a luciferase reporter of 2A StopGo recoding; control for the full effect not named in the record; 410,000 tested, 1.2% active; active = well fitted falling curve with a large enough effect; inconclusive = small, poorly fitted or top-dose-only effect; inactive = no such curve, though single readings can be large or run the other way; tested in HEK293T cells; also: % is scaled to controls: 0 for no effect and ±100 for the full control effect; nearly all actives have a fitted effect of over 45% in size; luciferase light after 4 h
Numbers without * were called inactive; ? = inconclusive; [ ] = remark or other dose. Potency is read from the fitted curve at half-maximal effect. These rows are one share of the data, so the mix of outcomes need not match the whole.

The line under a structure holds: RE007 growth inh	2A StopGo	SARS PLP yeast
Cc1ccc(C)c(-n2ccnc2SCC(=O)c2c(N)n(C3CC3)c(=O)[nH]c2=O)c1
 : 10%	?	-10%
CCOC(=O)C(C(=O)OCC)C(C[N+](=O)[O-])c1ccccc1 (stereo not given)
 : -7%	-4%	0%
O=S(=O)(Nc1nc2ccccc2nc1N1CCN(CCO)CC1)c1cc(F)ccc1F
 : -2%	4%	0%
O=C(Nc1ccc(S(=O)(=O)Nc2nccs2)cc1)c1ccc(F)c(S(=O)(=O)N2CCOCC2)c1
 : 13%	6%	0%
Cc1nn(CC(=O)N(C)C2(C#N)CCCCC2)c(C)c1[N+](=O)[O-]
 : -2%	-13%	7%
CNc1snc(C)c1C(=O)OC(C)C(=O)Nc1ccc(F)cc1 (stereo not given)
 : -3%	?	13%
Cc1csc(SCC(=O)Nc2cc([N+](=O)[O-])ccc2F)n1
 : -20%	-23%	-1%
CCN(CC)C(=O)c1[nH]cnc1C(=O)Nc1cccc(Cl)c1
 : 4%	-2%	-4%
CCC(=O)N(c1nnc(SCC(=O)Nc2ccc(N3CCOCC3)cc2)s1)C1CC1
 : -4%	-13%	0%
COc1cc(CC(=O)NNC(=O)c2cccs2)cc(OC)c1OC
 : -7%	-7%	1%

The last two entries of the part before lead into the next.
The line under a structure holds: RE007 growth inh	2A StopGo	SARS PLP yeast
CCC(=O)N(c1nnc(SCC(=O)Nc2ccc(N3CCOCC3)cc2)s1)C1CC1
 : -4%	-13%	0%
COc1cc(CC(=O)NNC(=O)c2cccs2)cc(OC)c1OC
 : -7%	-7%	1%
COC(=O)[C@@H]1C[C@@H](c2ccccc2)[C@H](C)C1(C)C
 : -9%	-8%	-3%
Cc1nc2ccc(S(=O)(=O)NCC(=O)NC(C)c3ccccc3)cc2s1 (stereo not given)
 : -7%	-9%	-1%
COC(=O)[C@@]1(C)[C@H]2C(=O)N(C)C(=O)[C@H]2[C@H]2CN=C(SCc3ccc(Cl)cc3)N21
 : -17%	-13%	7%
N#Cc1cccc2cccc(S(=O)(=O)N3CCOCC3)c12
 : 10%	-23%	1%
Cn1cnnc1SCC(=O)c1ccc2c(c1)NC(=O)CO2
 : 7%	-17%	-1%
CC(=O)c1c(C)[nH]c(C(=O)OCc2cc(=O)n3cc(Br)ccc3n2)c1C
 : 7%	-26%	-10%
Cc1ccc(OCCOc2ccc(S(=O)(=O)N3CCCC3)cc2C(N)=O)cc1
 : -14%	-13%	-1%
O=C(c1cc2cc([N+](=O)[O-])ccc2s1)N1CCOCC1
 : 14%	5%	1%
N#Cc1ccsc1NC(=O)C1=COCCO1
 : -2%	-2%	-5%
O=C(OCC(=O)N1CCCCCC1)c1ccc(Cl)nc1
 : -9%	28%	0%

The final two records of the part before open the next one:
The line under a structure holds: RE007 growth inh	2A StopGo	SARS PLP yeast
N#Cc1ccsc1NC(=O)C1=COCCO1
 : -2%	-2%	-5%
O=C(OCC(=O)N1CCCCCC1)c1ccc(Cl)nc1
 : -9%	28%	0%
O=C(Nc1nc2ccc(F)cc2s1)C1CC(=O)N(c2ccc3c(c2)OCCO3)C1 (stereo not given)
 : 2%	14%	10%
O=C(NCc1ccco1)C(=O)NCC(c1ccco1)N1CCOCC1 (stereo not given)
 : 2%	-11%	-1%
CCOC(=O)[C@H]1[C@H]2COc3ccc(C)cc3[C@@H]2N2C(=O)c3cc(Br)ccc3NC(=O)[C@@]12C
 : 5%	?	0%
Cc1cc(Br)ccc1SCC(=O)OCC(=O)NC1CCCC1
 : 7%	-12%	-10%
CCOc1ccc2oc(C(=O)NCC(C)(C)CN(C)C)c(C)c2c1
 : -5%	7%	2%
Nc1n[nH]c2cc(=O)n(-c3cccc(C(F)(F)F)c3)nc12
 : 13%	-7%	0%
O=C(Nc1cccs1)Nc1ccccc1Br
 : ?	63%[activator]	-10%
C1=C[C@H]2CC[C@@H]1N(c1ccccc1)O2
 : 6%	-10%	1%
COC(=O)c1c(-c2ccc(S(C)(=O)=O)cc2)sc2cc(OC)ccc12
 : -2%	35%[activator]	-3%
CN(CC(=O)Nc1ccc(F)cc1)CC(=O)N(C)C1(C#N)CCCCC1
 : -9%	-23%	10%

The listing continues:
The line under a structure holds: RE007 growth inh	2A StopGo	SARS PLP yeast
Cc1ccc(C2CC(c3cccc(NS(C)(=O)=O)c3)=NN2S(C)(=O)=O)cc1 (stereo not given)
 : -3%	0%	1%
COc1ccc(N2CCN(C(=O)COC(=O)c3ccc(Cl)nc3)CC2)cc1
 : 5%	-2%	-2%
COC(=O)C1=C(c2c(C)noc2C)C[C@@H]2CC[C@H]1N2C(=O)N1CCC(C)CC1
 : -3%	-12%	8%
Cc1ccc2c(Cl)cc(Cl)c(OCC(=O)N3CCOCC3)c2n1
 : 5%	-17%	-1%
C[C@H](CO)N1C[C@H](C)[C@@H](CN(C)C(=O)Nc2ccccc2)Oc2ccc(NS(=O)(=O)c3ccccc3)cc2C1=O
 : -20%	14%	1%
COc1ccc(NC(=S)NC(C)Cc2cccs2)cc1 (stereo not given)
 : -1%	78%[activator]	3%
CCN1/C(=C/c2ccc3cc(C)ccc3[n+]2CC)Sc2cc(C)ccc21
 : ?	?	-26%
Cc1ccc(S(=O)(=O)NCC(=O)OCCOc2ccccc2F)cc1
 : -14%	11%	-3%
CC1CCC2(CC1)NC(=O)N(CC(=O)NC(C)c1ccc(F)c(F)c1)C2=O (stereo not given)
 : -17%	-14%	0%
CC(=O)c1ccc(NS(=O)(=O)c2ccc3c(c2)CCC(=O)N3)cc1
 : -26%	8%	-2%

Later entries
The line under a structure holds: RE007 growth inh	2A StopGo	SARS PLP yeast
CCCCOC(=O)CCCc1ccc([N+](=O)[O-])cc1[N+](=O)[O-]
 : 6%	2%	-9%
Cc1ccccc1SCC(=O)NNC(=O)c1ccncc1
 : -7%	2%	0%
COc1ccc(Br)cc1/C=C/C(=O)NC(=S)Nc1ccc(Cl)c(C(=O)O)c1
 : 3%	-3%	-1%
COc1ccc(S(=O)(=O)N(C)C[C@H]2Oc3ccc(NC(=O)Cc4cn(C)c5ccccc45)cc3C(=O)N([C@@H](C)CO)C[C@@H]2C)cc1
 : 16%	-21%	10%
O=C1COc2ccc(C(=O)COC(=O)/C=C/c3ccco3)cc2N1
 : 4%	-27%	0%
COc1cc(OC)cc(C(=O)OCC(=O)Nc2sccc2C(N)=O)c1
 : 1%	?	-1%
N#Cc1ccccc1S(=O)(=O)N1CCN(C(=O)[C@@H]2CCCN2C(=O)c2cccs2)CC1
 : 8%	-18%	-7%
O=C1c2ccc(-c3ccc(Cl)c(C(F)(F)F)c3)cc2S(=O)(=O)c2cccc(C(=O)N3CCN(c4ncc(Br)cn4)CC3)c21
 : 6%	8%	0%
COc1ccc(CC(=O)NCc2nnc(SCC(=O)Nc3nccs3)n2C)cc1
 : -5%	-2%	0%
Nc1c(N(CCC2=CCCCC2)C(=O)COc2ccc(F)cc2)c(=O)[nH]c(=O)n1Cc1ccccc1
 : 1%	-22%	18%

Next records:
The line under a structure holds: RE007 growth inh	2A StopGo	SARS PLP yeast
Cc1ccc(C(=O)N2CCN(c3ccccn3)CC2)cc1
 : -8%	3%	0%
CC1(C)CC(=O)C=C(CN2C(=O)c3ccccc3C2=O)C1=O
 : -7%	-22%	1%
CCOc1ccc(NC(=O)CN(C)C(=O)c2cc(C)nc3ccccc23)cc1OCC
 : -2%	-14%	0%
CSc1ccccc1NC(=O)c1ccc(N2CCCC2=O)cc1
 : -8%	41%[activator]	-9%
CCCNC(=O)c1ccc(N2CCC3(CC2)CC(c2cccc(Br)c2)=NO3)c(NC(=O)c2ccc(Cl)c([N+](=O)[O-])c2)c1
 : 12%	-20%	1%
C[C@H](CO)N1C[C@H](C)[C@@H](CN(C)C(=O)Nc2ccc3c(c2)OCO3)Oc2c(NC(=O)Nc3ccccc3)cccc2C1=O
 : 4%	-3%	0%
CN(Cc1ccccc1)C(=O)c1ccc(NC(=O)Cc2cccc([N+](=O)[O-])c2)cc1
 : 4%	25%	-17%
COCCN(Cc1nc2ccccc2c(=O)[nH]1)C(=O)COc1cccc(C(C)=O)c1
 : -6%	-12%	2%
COc1ccc(CCNC(=O)Cn2c(=O)[nH]c3ccsc3c2=O)cc1OC
 : -25%	-18%	2%
O=C(CN1C(=O)CC(c2ccccc2)Sc2ccccc21)NCC1CCCO1 (stereo not given)
 : 6%	1%	-1%

Following part
The line under a structure holds: RE007 growth inh	2A StopGo	SARS PLP yeast
COc1ccc(-c2cc3cc(F)ccc3cn2)cc1
 : -3%	-3%	3%
Cc1noc(C)c1C(=O)Nc1nc(-c2cccs2)cs1
 : -15%	3%	-4%
Cc1cccc(OCCC(=O)NNC(=O)c2ccoc2C)c1
 : 12%	-5%	7%
COc1ccccc1NC(=O)CSc1nnc(-c2ccoc2C)o1
 : 12%	19%	1%
COc1ccc(S(=O)(=O)N2CCCCC2)cc1NC(=O)c1cncc(Br)c1
 : -3%	-18%	-4%
O=C1C=CN2CCOCC2C1 (stereo not given)
 : 3%	2%	29%
CCn1nnc2cc(C(=O)Nc3cccc(S(=O)(=O)N(C)C)c3)ccc21
 : 0%	-1%	-13%
Cc1nc2c(ccc3c([N+](=O)[O-])cccc32)c(C)c1C
 : -1%	14%	-2%
Cc1nc(NC(=O)CSc2nnc(C3CC3)n2N)c(Cl)cc1Cl
 : -9%	4%	-7%
C[C@H](CO)N1C[C@H](C)[C@@H](CN(C)C(=O)NC2CCCCC2)Oc2ccc(NC(=O)Cc3ccccc3)cc2C1=O
 : 12%	-14%	6%

Additional records
The line under a structure holds: RE007 growth inh	2A StopGo	SARS PLP yeast
FC(F)(F)c1nc(NCC2CCCO2)c2nnn(Cc3ccccc3Cl)c2n1 (stereo not given)
 : -5%	-27%	0%
COc1cc(/C=C2\SC(N)=NC2=O)ccc1OCC(=O)Nc1ccccc1C
 : -6%	-23%	-1%
NC(=O)c1ccc(NC(=O)COC(=O)CC2Sc3ccccc3NC2=O)cc1 (stereo not given)
 : 30%	32%[activator]	0%
CC(C)C(NC(=O)CCNC(=O)c1ccc([N+](=O)[O-])cc1)c1nc2ccccc2[nH]1 (stereo not given)
 : -8%	3%	2%
CC(=O)C[C@@H](O)CC(=O)[C@H]1OC(=O)CCCCCc2ccccc21
 : -7%	-23%	-1%
COc1cccc(CNCCO)c1OCc1ccc(Cl)cc1
 : 4%	-23%	2%
C=CCn1c(COc2cccc(C)c2)nnc1SC(C)C(=O)NC1CC1 (stereo not given)
 : -10%	-10%	-7%
CC(OC(=O)CCNS(=O)(=O)c1cccs1)C(=O)Nc1ccc(S(N)(=O)=O)cc1 (stereo not given)
 : 19%	-13%	1%
Cc1ccc2c(c1)C1CN(C)CCC1N2S(=O)(=O)c1cc(C(F)(F)F)ccc1Cl (stereo not given)
 : 9%	-26%	-1%
Cc1ccc(S(=O)(=O)Nc2ccccc2F)cc1C(=O)N1CCCC1
 : -15%	32%[activator]	5%

(list continues)
The line under a structure holds: RE007 growth inh	2A StopGo	SARS PLP yeast
Cc1ccc(C(=O)NCC(=O)NC2CC2)cc1
 : -6%	2%	1%
Cc1nn(-c2ccccc2)c(C)c1C(=O)OCC(=O)Nc1ccccc1C(F)(F)F
 : 1%	25%	-2%
Cc1ccc(S(=O)(=O)N2CCN(c3ccccc3)CC2)s1
 : 1%	?	2%
CN(Cc1cnn(Cc2ccccc2)c1)C(=O)c1cccc(S(=O)(=O)N2CCOCC2)c1
 : -12%	-28%	5%
CC(C)(C)C(CO)NC(=O)c1ccc[nH]1 (stereo not given)
 : 13%	9%	-2%
CC(NC(=O)Cc1ccc(S(=O)(=O)N2CCCCC2)cc1)c1ccccc1 (stereo not given)
 : -13%	-20%	2%
CC(=O)Nc1ccc(S(=O)(=O)NCC(=O)OCC(=O)N2CC(C)OC(C)C2)cc1 (stereo not given)
 : 6%	-5%	-1%
CN(Cc1c(F)cccc1Cl)C(=O)C1=CC=CN2CCS(=O)(=O)N=C12
 : 1%	-5%	-2%
CCN(CC)C(=O)c1sc(N2C(=O)Nc3ccccc3N2O)c(C(=O)OC)c1C
 : 1%	-18%	3%
CCCCn1nc(C(=O)NCc2ccccc2CN2CCCC2)c2ccccc2c1=O
 : 5%	-19%	1%

Carrying on.
The line under a structure holds: RE007 growth inh	2A StopGo	SARS PLP yeast
COC(=O)[C@]1(C)N[C@H](CN(C)S(=O)(=O)c2ccc(-c3ccccc3)cc2)[C@@H]2C(=O)N(Cc3ccccc3)C(=O)[C@@H]21
 : 3%	-24%	2%
Cc1ccc(S(=O)(=O)N(C)C[C@@H]2Oc3c(NC(=O)C4CC4)cccc3C(=O)N([C@@H](C)CO)C[C@@H]2C)cc1
 : -18%	-8%	0%
Cc1cccc(CC(=O)NCCn2c(C)cc3ccccc32)c1
 : -5%	-14%	-1%
COc1ccccc1CNC(=O)CN1C(=O)NC2(CCCc3ccccc32)C1=O (stereo not given)
 : -7%	-2%	-12%
O=C(COC(=O)/C=C/c1ccc(Cl)c(Cl)c1)NC1CCCC1
 : 5%	-4%	7%
COc1ccc(C2NC(=S)NC(C)=C2C(=O)N2CCOCC2)cc1 (stereo not given)
 : -1%	0%	3%

Source: PubChem
